Source: PubChem (National Center for Advancing Translational Sciences (NCATS))
GLA inh pH 4.5: blocks human alpha-galactosidase A at pH 4.5 | P06280 | purified enzyme, 4-MU-alpha-Gal fluorescence, pH 4.5 | activity change, negative = inhibition, % at 105 µM | 230,000 tested, under 10 active | AID 1467; inconclusive = small, poorly fitted or top-dose-only inhibition, or a rising curve; inactive = flat fitted curve, though single readings scatter; no compound was filed as active;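 further: 0% = full activity with enzyme and -100% = basal without enzyme; dose as in the result columns while the protocol names 77 µM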
Target sequence (P06280 whole entry, looked up): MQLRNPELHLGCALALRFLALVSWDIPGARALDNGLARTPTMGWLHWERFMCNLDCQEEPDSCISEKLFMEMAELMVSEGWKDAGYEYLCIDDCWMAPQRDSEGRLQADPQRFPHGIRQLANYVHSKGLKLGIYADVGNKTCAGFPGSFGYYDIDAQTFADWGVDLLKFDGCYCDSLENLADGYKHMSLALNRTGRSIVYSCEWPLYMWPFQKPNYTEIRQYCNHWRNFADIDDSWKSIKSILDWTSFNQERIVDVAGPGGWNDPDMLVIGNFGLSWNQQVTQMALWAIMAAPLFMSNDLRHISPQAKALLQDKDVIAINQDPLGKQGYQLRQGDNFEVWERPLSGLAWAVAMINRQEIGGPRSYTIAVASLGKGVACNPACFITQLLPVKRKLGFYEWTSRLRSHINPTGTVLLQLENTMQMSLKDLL
Rango release inh: prevents RanGTP from dissociating the Rango-importin beta complex | Biochemical FRET Rango-importin beta, RanGTP-induced dissociation | Potency, µM (series often up to 46.1 µM), without a hit: at the top dose activity change, negative = inhibition | 340,000 tested, 0.071% active; active means falling FRET ratio curve, often poorly fitted, with flat reads before Ran was added; inconclusive means other falling curves, or compound fluorescence or quenching; inactive means flat or rising ratio curve;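 further: potency means the concentration at half of the fitted maximal effect; % of control where 0% means no effect; nearly all actives have a fitted effect of over 45% in size; -100% = wells without RanGTP and RCC1; the record marks most hits as doubtful in a second field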
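Two FRET readings bracket the reaction: one 5 min after compound meets Rango–importin beta, another 45 min after RanGTP-RCC1 (0.6 uM Ran, 0.2 uM RCC1, 2 mM GTP) is added. Only the second defines inhibition.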
Rango complex inh: prevents formation of the Rango-importin beta complex; Rango CFP/YFP FRET sensor + importin beta, 45 min; Potency, µM (series often up to 92.2 µM), without a hit: at the highest dose inhibition of complex formation; 340,000 tested, 0.031% active; AID 540263; active = rising FRET ratio curve, often small or poorly fitted; inconclusive = mostly compound fluorescence or quenching in the first reads; inactive = flat curves in all reads;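 further: potency means the concentration at half of the fitted maximal effect; 0% = DMSO wells and 100% = buffer wells lacking importin beta; nearly all actives have a fitted effect of over 15% in size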
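FRET biosensor (snurportin 1 IBB flanked by EYFP and cerulean), 50 nM, with compound 5 min, then 0.125 microM importin beta in PBS, 1 mM DTT, 0.02% Tween-20, 0.1% BSA. CFP/YFP ratio read after 45 min at room temperature; pre-read flags interference.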
miR-21 reporter: raises the signal of a miR-21 reporter; HeLa miR-21 FLuc reporter, luciferase, 48 h; 340,000 tested, under 10 active; Potency, µM (highest dose often 38.3 µM), for the others: top-dose reporter change, positive = more light; AID 2288; active = well fitted rising curve with a large enough effect; inconclusive = small, poorly fitted or top-dose-only effect; inactive = no such curve, though single readings can be large or run the other way;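 further: % of control where 0% means no effect; miR-21 action dims this reporter so a rising signal means less miR-21 action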
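Compounds were titrated across several concentrations (up to approximately 40 uM) and incubated 48 hours with HeLa miR-21-FLuc reporter cells (miR-21 target sequence downstream of FLuc, endogenous miR-21). Readout was firefly luciferase luminescence after lytic detection reagent.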
Numbers without * were called inactive; ? = inconclusive; . = no result given; & = joins results of further samples. Only part of the results is shown (hit frequency here may not be typical).

SMILES	GLA inh pH 4.5	Rango release inh	Rango complex inh	miR-21 reporter
Cc1cc(=O)oc2cc(OCC(=O)NCCCn3ccnc3)ccc12	.	2%	0.3%	0%
COc1cc(OC)c2ccc(=O)oc2c1C(CC(=O)N1CCCC1)c1ccc2c(c1)OCO2 (stereo not given)	-10	-16%	?	-12%
O=C(NNC(=O)c1ccccc1Br)c1ccccc1Cl	-4	3%	0.9%	-23%
CCCCS(=O)(=O)N1C2=NC(C(=O)OC)=C(C(=O)OC)[C@@H]3N(C)c4ccc(OC)cc4[C@]23C[C@H]1C(=O)OC	2&-17	1%	5.0%	0%
Cc1ccc(CNC(=O)c2ccc3c(c2)S(=O)(=O)c2ccccc2C3=O)o1	.	-3%	-2.6%	.
Cc1ccc(NC(=S)NCCO)c(C)c1	-1	-6%	3.0%	1%
COc1cc(Cl)c(C)cc1NC(=O)CN1C(=O)C2CC=CCC2C1=O (stereo not given)	.	14%	0.7%	.
O=C(CNC(=O)c1ccncc1)N/N=C/c1cccc([N+](=O)[O-])c1	7	7%	2.0%	0%
COc1ccc(NCC(=O)N/N=C/C=C\c2ccccc2)cc1	-1	0%	-0.8%	-17%
COCCNc1nc(N)c([N+](=O)[O-])c(Nc2ccc(F)cc2)n1	.	9%	-1.5%	-6%
O=S(=O)(O)c1ccc(SCc2ccccc2)nc1	.	-10%	-2.7%	.
Cc1[nH]n(C(C)(C)C)c(=O)c1Sc1ccccc1	9	0%	4.2%	1%
CCC(c1nnnn1Cc1ccc2c(c1)OCO2)N1CCN(c2ccc(F)cc2)CC1 (stereo not given)	-8	-11%	6.8%	0%
O=C(NCCCn1cccn1)C1CCC(=O)N(Cc2cccc(C(F)(F)F)c2)C1 (stereo not given)	.	3%	-0.8%	0%
C=CCC[C@@H](Cc1ccc(F)cc1)C(=O)OC[C@@H](Cc1c[nH]c2ccccc12)NC(=O)[C@@H](CC=C)CC(=O)N(CCO)Cc1ccccc1	.	9%	-0.1%	.

Filtered by structure: those above containing a Cl atom
SMILES	GLA inh pH 4.5	Rango release inh	Rango complex inh	miR-21 reporter
O=C(NNC(=O)c1ccccc1Br)c1ccccc1Cl	-4	3%	0.9%	-23%
COc1cc(Cl)c(C)cc1NC(=O)CN1C(=O)C2CC=CCC2C1=O (stereo not given)	.	14%	0.7%	.

Following part:
SMILES	GLA inh pH 4.5	Rango release inh	Rango complex inh	miR-21 reporter
Cn1cccc1CNCc1ccccc1Cl	0	0%	1.7%	-7%
C/C(=C\c1ccc2c(c1)OCO2)C1Nc2cccc3cccc(c23)N1	.	2%	-2.4%	.
CCOc1ccccc1/C=C(\C#N)C1=CCCC1	.	0%	-0.1%	0%
Cc1ccc(CNC(=O)Cc2csc(Nc3nc(=S)[nH]c4ccccc34)n2)cc1	-18	.	.	0%
Cc1ccc(S(=O)(=O)NCC23C=CC(O2)C2C(=O)N(c4ccccc4)C(=O)C23)cc1 (stereo not given)	3	4%	-1.1%	14%
CCC(=O)Nc1ccc(N2CCCCC2)cc1	9	?	7.2%	-25%
O=C(NNC(=O)c1ccccc1OCc1ccccc1Cl)c1csc(N2CCOCC2)n1	.	-11%	1.1%	15%
CC(C)CN1C(=O)C(=O)N(CC(=O)c2ccc[nH]2)C1=O	.	1%	0.4%	.
COc1ccc(N=Nc2c(C)n[nH]c2C)cc1	.	0%	2.6%	-63%
CCOC(=O)c1nc(NNC(C)=O)sc1C	-13	16%	-1.0%	3%
Cc1nc(-c2c(C(F)(F)F)noc2-c2ccc(O)cc2O)cs1	-2	-1%	0.9%	7%
Cc1ccc(OCCN2CCCCCC2)c(C)c1	4	15%	-0.2%	-3%
NC(=O)C1CCN(CC(=O)N2c3ccccc3CCc3ccccc32)CC1	3	-16%	3.6%	1%
CCOc1ccc(C(=O)Nc2cccc3ncccc23)cc1Cl	.	?	-0.2%	-2%
CCOC(=O)c1c(C=O)c(C)n(Cc2ccc(Cl)cc2)c1C	0	9%	1.9%	5%
Cc1ccccc1N/C(=C(/C(Cl)=C(Cl)Cl)[N+](=O)[O-])n1nnc2ccccc21	5	?	?	-2%
O=C(CCNC(=O)Cn1cnc2ccccc2c1=O)NCC1CCCO1 (stereo not given)	0	-1%	-2.6%	-1%
COCCN1C(=NCCCOC(C)C)N[C@@H](c2ccccc2)C(C(=O)OC)=C1C	.	1%	0.1%	0%&0%
O=C(Nc1nc(-c2ccccn2)cs1)c1ccc2c(c1)OCCO2	2	-3%	-0.3%	2%
CCCCn1c(N)c(N(C(=O)CSc2nncn2-c2ccccc2)C2CCCC2)c(=O)[nH]c1=O	.	1%	4.4%	.
CCCCCCOc1ccc(C(=O)n2cnc(N)n2)cc1	-11	-6%	0.1%	-16%
O=C(COc1ccccc1)NC(=S)N1CCc2ccccc21	4	-1%	-1.0%	-47%
CCC(=O)N1CCN(c2ccccc2NC(=O)c2cccs2)CC1	.	-12%	2.0%	1%
CNC(=O)CN1C(=O)CSc2ncccc21	-1	13%	-0.8%	-1%
CC(=O)N[C@@H](Cc1c[nH]c2ccccc12)C(=O)OCc1ccc(C#N)cc1	.	7%	-3.5%	0%
CCc1c(C)nc(Nc2nc(C)c3cc(OC)ccc3n2)[nH]c1=O	3	-2%	-1.0%	-26%
Cn1c(=O)[nH]c(=O)c2c1[nH]c(=S)n2CCCc1ccccc1	.	42%	-2.6%	0%
Cc1cc(C)cc(NS(=O)(=O)c2ccc3c(c2)c(=O)n(C)c(=O)n3C)c1	7	9%	-2.0%	?
COc1cccc2c(SCC(=O)N/N=C/c3ccccc3)cc(C)nc12	-7	0%	0.4%	11%
O=C(COC(=O)CNC(=O)c1ccc([N+](=O)[O-])o1)Nc1ncc(C(F)(F)F)cc1Cl	.	-13%	0.9%	.
Cc1cc(C(=O)N2CC(C)CC(C)C2)c(C)o1 (stereo not given)	.	9%	-0.7%	.
CN(C)C(=O)N1CCCC(C(=O)NCc2ccccc2Cl)C1 (stereo not given)	-8	-12%	-3.0%	-6%
O=C(COc1ccccc1Cl)Nc1cc(NC(=O)COc2ccccc2Cl)cc(C(=O)O)c1	.	24%	-2.3%	-4%
Cc1nc2c(C(=O)NCc3cccs3)cnn2c(C)c1Cc1ccc(F)cc1	3	.	.	-8%
CC1CCN(C(=O)C2CCN(S(=O)(=O)c3cccc4nsnc34)CC2)CC1	-14	-4%	0.3%	1%
CCOc1ccccc1OCC(=O)N/N=C(\C)Cc1ccc(OC)cc1	9	5%	0.0%	24%
Cc1c2cnn(CC(=O)NCCCN3CC(C)CC(C)C3)c(=O)c2c(C)n1Cc1ccc(Cl)cc1 (stereo not given)	.	-4%	-0.3%	9%
CCc1nccn1-c1cc(C(C)(C)C)nc2c(-c3ccc(Cl)cc3)cnn12	2	-2%	-2.8%	-35%
CC(=O)c1c(C)n(-c2ccc(N(C)C)cc2)c2ccc(OCC(N)=O)cc12	-12	6%	1.5%	11%
COc1ccc(OCC(=O)N2CC3(C)CC2CC(C)(C)C3)cc1 (stereo not given)	-1	5%	1.5%	-3%
c1ccc2c(c1)nc1n2CN(Cc2ccc3c(c2)OCO3)CN1	-3	9%	1.2%	0%
COc1ccc(Nc2nnc(C)c(=O)[nH]2)cc1	-3	0%	-0.3%	0%
O=C(NC1CC1)c1ccc(Cl)c(S(=O)(=O)N2CCOCC2)c1	.	12%	0.5%	0%
O=C(NCc1ccco1)c1ccccc1SCC(=O)N1CCCC1	.	6%	-5.3%	.
CC(C)CCNC(=O)CN(CC1CCCO1)C(=O)CCC(=O)Nc1ccccn1 (stereo not given)	-5	-16%	0.4%	-3%
CCC(=O)Nc1ccc(C(=O)NNC(=O)c2ccc(C)cc2)cc1	.	2%	-0.5%	-3%
O=C(COc1cc(O)c2c(=O)cc(-c3ccccc3)oc2c1)c1cccc([N+](=O)[O-])c1	.	-8%	-0.9%	-8%
COc1ccc2cc(/C=N/NC(=O)c3ccc(CN(c4ccc(C)c(C)c4)S(C)(=O)=O)cc3)c(Cl)nc2c1	1	-16%	?	21%
CC(=O)NCCc1nc2ccccc2n1Cc1ccccc1	-7	23%	-2.9%	-8%
Cc1nc(SCC(=O)Nc2ccc(OCc3ccccc3)cc2)n[nH]1	4	-14%	-1.3%	-14%
CCCCn1c(N)c(N(CC)C(=O)c2cc(S(=O)(=O)N3CCCCCC3)ccc2OC)c(=O)[nH]c1=O	.	-21%	-2.5%	.
COc1ccc(CN2C(=O)C(CC(C)C)Nc3ncnc(N4CCN(c5ccccn5)CC4)c32)cc1 (stereo not given)	.	-9%	6.1%	.
Cc1ccc(NC(=O)c2ccco2)c(NC(=O)Cc2cccs2)c1	-8	0%	-2.2%	0%
Brc1ccc(-c2csc(-c3c[nH]c4ccccc34)n2)cc1	-4	5%	-3.3%	-47%
CCOCCCn1c(=NC(C)=O)c(C(=O)OCC)cc2c(=O)n3ccccc3nc21	?	?	?	-6%

Another view of 6 compounds above.
The line under a structure holds: GLA inh pH 4.5 | Rango release inh | Rango complex inh | miR-21 reporter
> COc1ccc2cc(/C=N/NC(=O)c3ccc(CN(c4ccc(C)c(C)c4)S(C)(=O)=O)cc3)c(Cl)nc2c1
    1 | -16% | ? | 21%
> CC(=O)NCCc1nc2ccccc2n1Cc1ccccc1
    -7 | 23% | -2.9% | -8%
> Cc1nc(SCC(=O)Nc2ccc(OCc3ccccc3)cc2)n[nH]1
    4 | -14% | -1.3% | -14%
> CCCCn1c(N)c(N(CC)C(=O)c2cc(S(=O)(=O)N3CCCCCC3)ccc2OC)c(=O)[nH]c1=O
    . | -21% | -2.5% | .
> COc1ccc(CN2C(=O)C(CC(C)C)Nc3ncnc(N4CCN(c5ccccn5)CC4)c32)cc1 (stereo not given)
    . | -9% | 6.1% | .
> Cc1ccc(NC(=O)c2ccco2)c(NC(=O)Cc2cccs2)c1
    -8 | 0% | -2.2% | 0%
